TRPV1 PAM: human TRPV1 potentiation. potentiation, % at 8.33 µM. TRPV1-expressing cells, Fluo-8 calcium influx, capsaicin EC20 potentiation; host cell line not named in the record; control for the full effect not named in the record. Q8NER1. hit rate 0.02% among 320,000; active means potentiation above 80%; inconclusive means 30% to 80%; inactive means below 30%; also: 0% is about no effect
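TRPV1-expressing cells were cultured overnight at 35.5C and loaded with Fluo-8 calcium dye for 40 to 90 min at room temperature. After a 10 s baseline, compound was added and calcium influx was read kinetically for 3 min (ex 480/em 520 nm).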
ClpP mod: qHTS Assay for Activators of ClpP; Potency, µM (titrated, usually from 57.5 µM), for the others: at the top dose activity change, negative = active; ATP-dependent Clp protease proteolytic subunit (Bacillus subtilis (strain 168)), P80244; purified B. subtilis ClpP, FRET peptide cleavage, 20 min; hit rate 1.9% among 340,000; active = well fitted falling curve with a large enough effect; inconclusive = small, poorly fitted or top-dose-only effect; inactive = no such curve, though single readings can be large or run the other way; also: potency is read from the fitted curve at half-maximal effect; the source files actives as falling curves though it sought activators and does not explain the sign; nearly all actives have a fitted effect of over 65% in size; many hits overshoot -100%
Target sequence (P80244 whole entry, looked up): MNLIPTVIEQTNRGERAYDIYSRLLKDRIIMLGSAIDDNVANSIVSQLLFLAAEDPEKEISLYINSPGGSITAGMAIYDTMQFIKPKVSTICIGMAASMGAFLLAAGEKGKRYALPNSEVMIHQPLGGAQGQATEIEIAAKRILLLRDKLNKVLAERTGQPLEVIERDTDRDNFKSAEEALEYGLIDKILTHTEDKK
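Buffer: 100 mM Tris/HCl pH8, 100 mM KCl, 0.05% low protease BSA, 2.5% glycerol, 0.01% Tween-20. ClpP 10 microg/mL final; 20 min RT; delta FRET normalized to ADEP and DMSO controls.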
Sfp inh: inhibitors of Bacillus subtilis Sfp phosphopantetheinyl transferase. Q9F4F7. hit rate 3.5% among 310,000. AID 1490. Potency, µM, for the others: max response, negative = inhibition, hits mostly inhibitors. Biochemical Sfp PPTase activity, qHTS; active = well fitted inhibition curve with a large enough effect; inconclusive = small, poorly fitted or top-dose-only effect, or another doubt; inactive = no such curve, though single readings can be large or run the other way;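 also: the enzyme is Sfp with the accession as filed and its product quenches rhodamine fluorescence; potency is read from the fitted curve at half-maximal effect; 0% = enzyme reaction without inhibitor and -100% = no enzyme wells; top concentration of the series not given in the record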
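Reaction rates are the 30-min fluorescence difference (ex 525, em 598 nm) in wells containing 15 nM Sfp, 5 uM rhodamine-CoA and 12.5 uM BHQ-2-YbbR at pH 7.6 with 10 mM MgCl2.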
PINK1 modulator: changes PINK1 expression; PINK1 immunofluorescence, high-content cytometry, 24 h; Potency, µM (top dose mostly 76.6 µM), for the others: at the highest dose activation (PINK1 increase), actives largely listed as activators; hit rate 0.2% among 410,000; active = well fitted activation curve with a large enough effect; inconclusive = small, poorly fitted or top-dose-only effect; inactive = flat fitted curve, though single readings scatter; cell line not stated here;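 also: potency is read from the fitted curve at half-maximal effect; % of control where 0% means no effect; nearly all actives have a fitted effect of over 65% in size; a mitochondrial uncoupler was the plate control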
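PINK1 protein, normally rapidly degraded, was detected by immunofluorescence after 24 hour compound treatment of a stable cell line. Titration data (5 concentrations) came from laser-scanning cytometry, with CCCP-treated wells as controls.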
TRPML1 blocker: blocks the human TRPML1 channel; TRPML1-inducible cells, Ca2+ dye fluorescence, FDSS; active compounds read low; inhibition of EC80 agonist-evoked calcium signal; activity change, negative = inhibition, % (test concentration not listed); hit rate 0.02% among 390,000; in the data active means activity change below about -50%; inconclusive means about -30% to -50%; inactive means above about -30%;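 also: stimulus is agonist 54-4 at its EC80 concentration; % is scaled to controls: 0 for no effect and ±100 for the full control effect; compound concentration not given in the record; the text of the record puts the active cut at -80%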
Target sequence (Q9GZU1 whole entry, looked up): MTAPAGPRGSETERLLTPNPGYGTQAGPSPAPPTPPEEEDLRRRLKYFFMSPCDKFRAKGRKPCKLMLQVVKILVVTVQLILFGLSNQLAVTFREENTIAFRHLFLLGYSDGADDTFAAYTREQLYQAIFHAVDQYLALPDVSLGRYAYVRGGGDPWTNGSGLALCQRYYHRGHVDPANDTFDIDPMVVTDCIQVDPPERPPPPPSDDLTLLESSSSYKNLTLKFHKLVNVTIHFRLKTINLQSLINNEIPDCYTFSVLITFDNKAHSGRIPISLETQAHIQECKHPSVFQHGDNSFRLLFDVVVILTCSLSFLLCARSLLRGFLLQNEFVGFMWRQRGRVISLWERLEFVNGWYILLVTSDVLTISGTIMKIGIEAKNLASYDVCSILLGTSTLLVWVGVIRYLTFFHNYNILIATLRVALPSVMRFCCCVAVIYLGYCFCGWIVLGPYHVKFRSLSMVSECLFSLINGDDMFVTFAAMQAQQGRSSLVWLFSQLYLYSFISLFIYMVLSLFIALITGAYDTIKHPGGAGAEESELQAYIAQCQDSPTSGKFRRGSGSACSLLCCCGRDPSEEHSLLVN
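TRPML1-DL cells, Tet-induced overnight (~16 h, 37 °C) at 1,500 cells/well, were loaded with Ca8 no-wash dye plus quencher for 45-90 min at room temperature. Compounds were pinned during FDSS kinetic reading; agonist 54-4 at EC80 (4 uM final) then added.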
TRPML1 ag: activates the human TRPML1 channel; AID 624414; TRPML1-expressing cells, Ca2+ dye fluorescence, FDSS; host cell line not named in the record; reference of the full effect not given here; activation, % (test concentration not listed); hit rate 0.12% among 410,000; in the data active = activation above about 50%; inconclusive = about 30% to 50%; inactive = below about 30%; also: 0% is about no effect; the text of the record puts the active cut at 80%
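Kinetic FDSS Ca2+ read in Tet-induced TRPML1-DL cells (ABD Ca8 dye plus quencher, 45-90 min RT loading): baseline, then compound, then 110 s agonist window; EC80 agonist 54-4 at 4uM final added afterwards for a 110 s antagonist window.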
Menin-MLL FL inh: menin-MLL binding inhibition, fluorescein peptide | FP activity change, % at 61.4 µM | 290,000 tested, under 10 active | Fluorescence polarization, fluorescein-MLL peptide displacement from menin; inconclusive = falling polarisation curve, or a change in total fluorescence; inactive = total fluorescence flat and polarisation flat or rising; no compound was filed as active; the % refers to the polarisation; negative = inhibition;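 also: % of control where 0% means no effect; inhibitors lower the polarisation; unlabelled MLL peptide was the positive control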
Starred values were filed as active, the others as inactive; ? = inconclusive; nt = no result given; [ ] = another dose, or the depositor's remark. The order is random, and some 4.4% of all compounds hit somewhere here.

SMILES	TRPV1 PAM	ClpP mod	Sfp inh	PINK1 modulator	TRPML1 blocker	TRPML1 ag	Menin-MLL FL inh
O=S(=O)(CCc1nc2ccccc2s1)c1ccc(Cl)cc1	0	1.3%	6%	-0.8%	5	0.0	-0.9
O=C(CN(Cc1ccccc1F)C(=O)Cn1nnc(-c2cccs2)n1)NC1CCCCC1	11	-0.6%	-11%	-0.8%	2	3.5	3.1
CCC1CCCCN1CCCNC(=O)c1csc2c1CCCCC2 (centres undefined)	24	0.2%	12%	-2.1%	-8	0.6	nt
COc1ccc(C)cc1N(C(=O)COc1ccccc1)c1nc2ccccc2s1	?	10µM*	14%	5.6%	14	-0.2	nt
Cc1c(NC(=O)Nc2ccc3c(c2)OCO3)c(=O)n(-c2ccccc2)n1C	2	-0.6%	22%	?	19	-0.2	-1.6
CCc1nc2ccc(C(=O)NCCNC(C)=O)cn2c1N(C)Cc1ccc(OC)cc1	nt	-4.4%	nt	1.1%	nt	-0.2	nt
COc1ccccc1C(=O)c1cc2ccc(O)cc2oc1=O	8	0.1%	-15%	1.1%	-12	2.6	?
Cc1nnc(SCC(=O)N2CCN(c3ccccc3)CC2)n1-c1ccccc1	-10	1.2%	8%	1.5%	5	-0.8	5.6
COC(=O)c1ccc(NC(=S)NCCc2ccc(OC)cc2)cc1	6	nt	-5%	1.6%	-5	1.3	0.4
O=C(COC(=O)/C=C/c1ccc([N+](=O)[O-])cc1)Nc1ccc2[nH]c(=O)[nH]c2c1	-5	-3.9%	nt	4.1%	14	-0.4	nt
NC(=O)CSc1nnc(NC(=O)c2ccc3ccccc3c2)s1	11	-1.4%	nt	0.5%	16	1.8	nt
Cc1nc(C(F)(F)F)ccc1C(=O)N1CCCCCC1(C)C(=O)NCC(C)C (centres undefined)	nt	1.4%	nt	0.8%	nt	-0.3	nt
Cc1ccc(C)c(NC(=O)C(=O)NCCc2csc(-c3cccc(F)c3)n2)c1	nt	-1.1%	nt	1.8%	-18	0.2	nt
CCN(CC)CCN(C(=O)c1cc2ccccc2cc1OC)c1nc2ccc(OC)cc2s1	6	-29%	50µM*	5.1%	33	0.8	0.5
CCOC(=O)c1sc(NC(=O)CSc2nccn2C)nc1C	4	-2.2%	-2%	-3.3%	-20	0.3	nt
C/C=C(/C)C(=O)OC1c2c(ccc3ccc(=O)oc23)OC(C)(C)C1OC(C)=O (centres undefined)	-15	16µM*	6%	-2.1%	13	12	-0.3
Cc1cccc2cc(CN(CC3CCCO3)C(=O)c3cccnc3)c3nnnn3c12 (centres undefined)	-8	-6.7%	6%	-1.3%	-10	0.8	0.5
CCC(=O)N1CCN(c2ccc(NC(=S)NC(=O)c3cc4ccccc4o3)cc2)CC1	3	1.7%	-4%	11%	10	-0.8	nt
COc1ccccc1N1CC(C)C(=O)NC1=S (centres undefined)	-2	-2.7%	6%	2.8%	-15	0.1	8.1
CC(=O)Nc1ccc(S(=O)(=O)N(CCc2ccccc2)CC(=O)N/N=C/c2ccc(C(=O)O)cc2)cc1	8	-1.6%	16%	-0.2%	11	1.0	-1.2
COc1cccc(NC(=O)COc2ccccc2)c1	-18	-1.5%	3%	0.3%	9	-0.2	-0.4
COc1ccc(C(=O)NC(=S)Nc2ccccc2[N+](=O)[O-])cc1OC	12	nt	89µM*	6.2%	18	0.2	-3.6
Cc1ccc(NS(=O)(=O)c2ccc(C(=O)OCC(=O)NCC3CCCO3)cc2)cc1 (centres undefined)	-9	nt	13%	-2.1%	4	0.5	-1.7
Cc1cc(=O)[nH]c2nnc(SCC(=O)N3CC(C)OC(C)C3)n12 (centres undefined)	1	nt	nt	0.7%	-8	-0.9	nt
Cc1c(NC(=O)C2(c3ccccc3)CCCC2)c(=O)n(-c2ccccc2)n1C	24	0.2%	2%	-1.3%	0	-0.5	4.2
CN(Cc1ccccc1)C(=O)c1ccccc1C(=O)OCC(=O)N(Cc1ccccc1)C(C)(C)C	nt	0.1%	nt	28%	4	-0.2	nt
COC(=O)[C@]12CCCCC=C1N(Cc1cccc3ccccc13)C(=O)[C@H](CC(=O)NCc1ccc(C)o1)C2	nt	-2.0%	nt	4.0%	nt	0.0	nt
COc1cc(CC(=O)Nc2cccc(C(F)(F)F)c2)cc(OC)c1OC	0	-10%	-7%	0.1%	2	2.5	3.1
COc1ccc(/C=C(\NC(=O)c2ccc([N+](=O)[O-])cc2)C(=O)NCCN2CCOCC2)cc1	-10	nt	10%	-0.9%	-5	0.5	-1.6
CC(=O)Nc1ccc(-c2csc(NC(=O)C3CCN(S(=O)(=O)c4cccs4)CC3)n2)cc1	-11	-2.3%	-23%	6.9%	-6	0.8	-2.3

Single records, from the list above:
CC(=O)Nc1ccc(S(=O)(=O)N(CCc2ccccc2)CC(=O)N/N=C/c2ccc(C(=O)O)cc2)cc1 in the list: TRPV1 PAM = 8; ClpP mod = -1.6%; Sfp inh = 16%; PINK1 modulator = -0.2%; TRPML1 blocker = 11; TRPML1 ag = 1.0; Menin-MLL FL inh = -1.2
Cc1nnc(SCC(=O)N2CCN(c3ccccc3)CC2)n1-c1ccccc1 in the list: TRPV1 PAM = -10; ClpP mod = 1.2%; Sfp inh = 8%; PINK1 modulator = 1.5%; TRPML1 blocker = 5; TRPML1 ag = -0.8; Menin-MLL FL inh = 5.6

Carrying on:
SMILES	TRPV1 PAM	ClpP mod	Sfp inh	PINK1 modulator	TRPML1 blocker	TRPML1 ag	Menin-MLL FL inh
CCCCCCCCn1c(=O)c(C(=O)OCC)c(O)c2ccccc21	-9	?	3%	-1.4%	1	0.6	-0.2
CS(=O)(=O)Nc1ccc(C(=O)Nc2ccccc2-c2ccccc2)cc1	0	-1.4%	5%	0.8%	-6	1.5	2.4
O=C(NNS(=O)(=O)c1ccccc1)c1ccc(F)cc1	-16	1.3%	6%	-1.5%	5	0.2	-5.1
CC1Sc2ccc(S(=O)(=O)NCCc3ccc(S(N)(=O)=O)cc3)cc2NC1=O (centres undefined)	20	0.6%	13%	0.8%	14	-0.5	nt
CN(CC(=O)Nc1ccc(Cl)c(Cl)c1)C(=O)C1CCCC1	1	1.2%	nt	4.8%	7	-0.3	nt
CC(=O)N1CC2(CC(c3ccc(Cl)cc3Cl)=NO2)CN1c1cccc(Cl)c1 (centres undefined)	nt	-1.3%	nt	-1.5%	19	2.7	nt
O=C(CSc1nnc(-c2ccco2)n1Cc1ccccc1)NC(=O)NCc1ccco1	-11	1.0%	?	-0.7%	5	0.7	3.6
COc1ccc([C@@H]2C[C@H]3CN(c4ccccc4)C(=O)[C@]34CCCN24)c(OC)c1OC	4	1.4%	6%	1.6%	5	1.0	?
COC(=O)C1C2C=CC3(CN(c4ccc(Cl)c(F)c4)C(=O)C13)O2 (centres undefined)	17	2.5%	-5%	2.9%	4	0.0	1.5
COc1ccc(CCNC(=O)c2ccc3c(c2)N(Cc2ccc(F)cc2)C(=O)CS3)cc1OC	nt	-0.3%	nt	0.9%	-5	1.9	nt
COc1cccc(-c2cc(C(=O)O)no2)c1	13	-3.7%	2%	-1.0%[38.3 µM]	35	0.6	-2.5
Nc1nc(Nc2ccccc2F)nc(NCCO)c1[N+](=O)[O-]	nt	-1.0%	16%	0.7%	20	4.4	26
O=C(Nc1nnc(C2CC2)s1)c1n[nH]c(=O)c2ccccc12	-1	-1.8%	-6%	6.1%	nt	nt	7.7
CC(=O)Nc1ccc(S(=O)(=O)NCCC(=O)NC(C)c2cccs2)cc1 (centres undefined)	nt	1.6%	nt	0.9%	18	-0.7	nt
CC1CCCCN1C(=O)COC(=O)c1cccc(NS(=O)(=O)c2ccccc2)c1 (centres undefined)	29	nt	nt	4.8%	2	-1.1	nt
CC(NC=C1C(=O)OC(C)(C)OC1=O)C(=O)O (centres undefined)	1	1.8%	3%	0.3%	18	0.2	-3.6
Cc1nc(-c2ccc(F)cc2)sc1CCNC(=O)Cc1ccc(F)cc1	nt	-10.0%	nt	0.8%	18	1.1	nt
C=C1C(=O)[C@@]23[C@H](O)C[C@@H]4C(C)(C)CC[C@H](O)[C@]4(C)[C@@H]2C[C@H](O)[C@@H]1[C@H]3O	2	0.4%	45µM*	9.3%	-6	-0.6	-4.8
CC1(C)CC(=O)C2=C(C1)OC1OC(=O)CC21C (centres undefined)	-2	nt	18%	-0.2%	18	1.7	-4.4
Cc1cc2cc(CNC(=O)c3cccs3)ccc2[nH]1	27	-0.7%	-1%	1.8%	16	-0.3	1.3
CCOC(=O)Cn1c(=O)c2c(nc(Br)n2Cc2ccccc2Cl)n(C)c1=O	12	-2.0%	-8%	1.6%	7	4.7	2.9
Cc1snc(S(=O)(=O)Cc2c(Cl)cccc2Cl)c1C#N	4	-0.4%	1%	-1.8%	-22	-1.1	1.3
Cc1ccc(NC(=O)COc2ccc(Br)cc2CO)cc1S(=O)(=O)N1CCOCC1	nt	0.8%	nt	4.9%	0	1.8	nt
COCCNC(=S)Nc1ccccc1Cc1ccccc1	-15	1.0%	0%	1.7%	1	1.4	0.6
Cc1cc(N/N=C/c2cccc(Cl)c2)nc(NCc2ccccc2)n1	-16	-6.4%	?	13%	12	3.2	1.3
OCC1(CCc2ccccc2)CCN(Cc2ccc(OC(F)F)cc2)CC1	1	nt	-6%	0.1%	-4	1.5	1.0
O=c1[nH]c2ccccc2c(O)c1-c1ccccc1[N+](=O)[O-]	-5	nt	2%	-0.4%	-4	0.5	-1.8
COC(=O)CCCC(=O)N1CCCC(C(=O)c2ccccc2SC)C1 (centres undefined)	0	-0.6%	18%	0.9%	9	1.0	7.1
O=C(c1ccc(-n2cccn2)cc1)N1CCN(c2ncccc2C(F)(F)F)CC1	3	1.2%	4%	-0.3%	4	0.2	nt
CC(=O)Nc1ccc(NC(=O)c2c(C)noc2C)cc1	-4	0.4%	2%	0.4%	-4	-0.4	nt
NC(=O)c1c(NC(=O)c2ccncc2)sc2c1CCCCCC2	13	nt	1%	0.5%	-4	-0.8	-1.8
O=C(O)[C@@H]1[C@@H]2C[C@@H]2CN1c1ncccc1[N+](=O)[O-]	7	nt	-19%	0.5%	-3	0.5	?
Cc1c(C(=O)Nc2c(F)cc(F)cc2Br)sc2ncn(CC(=O)N3CCCC3)c(=O)c12	-2	-3.4%	-19%	3.1%	13	-0.4	4.3
